Compound activity: PubChem, several laboratories
T cruzi inh: inhibitors of intracellular T. cruzi growth, primary screen, luminescence, NIH3T3 host cells; T. cruzi beta-gal in NIH3T3, 90 h; inhibition, % (no concentration beside the values); 300,000 tested, 1.4% active;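 active = mean inhibition across valid replicates above about 55%, limit read from the data; inconclusive = mean below that limit but half or more replicates reach it; inactive = mean below it, under half of replicates reach it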;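 also: signal also drops with host cell toxicity which is not excluded here; 0% = plate median of DMSO wells and 100% = zero luminescence signal; higher percent means less beta-gal luminescence so fewer parasites; stock transfer was 50 nL into about 50 µL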
RanGTP-Impb inh: inhibitors of RanGTP-importin-beta interaction, primary screen, biochemical, FRET, CFP-Ran, YFP-importin-beta, homogeneous; Ran GTPase (GTP-bound) - importin-beta complex; AID 2216, 2009; inhibition, % (no concentration beside the values); cell-free CFP-Ran/YFP-importin-beta FRET ratio; 300,000 tested, 1.1% active;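 active = most replicates above 15%; inconclusive = exactly half above 15%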;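 also: 0% = DMSO wells and 100% = Ran loaded with GDP instead of GTP; wells of about 40 µL received 100 nL stock; the first replicate is given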
Vif A3G: inhibitors of Vif binding to APOBEC3G peptide, primary screen, biochemical, TR-FRET, GST-Vif 1-94, biotin-A3G peptide, dose response retest (AID 1117319). Virion infectivity factor (Human immunodeficiency virus type 1 group M subtype B (isolate …. TR-FRET GST-Vif / biotin-A3G peptide binding; higher % means a stronger effect; test concentration not given here; strong numbers were not always called active. inhibition, %, or IC50 in µM where a hit was titrated. 260,000 tested, 0.57% active;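 active = above the screen mean plus three standard deviations and confirmed in dose response; inconclusive = results disagree or hit not tested in dose response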;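 also: Vif residues 1-94 fused to GST binding biotinylated APOBEC3G peptide 110-148; 0% = full assay without inhibitor and 100% = GST in place of GST-Vif; retest series ran down from 100 µM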
Beta apoptosis: inhibitors of cytokine-induced beta cell apoptosis, primary screen, luminescence. INS-1E cytokine-induced death, ATP luminescence, 48 h; percent of positive-control rescue, neutral wells zero. protection from apoptosis, % (no concentration beside the values). 300,000 tested, 0.8% active;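 active = all replicates at 75% or more, or half of them and the mean; inconclusive = half reach 75% but not the mean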;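 also: 0% = cytokine-treated negative control wells and 100% = positive control rescue; higher means more ATP so stronger rescue from cytokine killing; wells of about 40 µL received 100 nL stock; the first replicate is given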
LANA-H2A inh: blockers of LANA interaction with H2A/H2B – biochemical, FP readout, HTS, primary screen; Protein LANA1 (Human herpesvirus 8 type P (isolate GK18)), Q9QR71; cell-free LANA-H2A/H2B peptide, fluorescence polarization; inhibition, % (test concentration not listed); 320,000 tested, 0.6% active; in the data active = inhibition mostly above about 10%, no sharp cut-off; inactive = mostly below about 6.7%;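 also: stock transfer was 7.5 nL into about 10 µL; 0% = median of vehicle wells and 100% = median of positive control wells; one replicate is shown; the record names a cut of 25% in any replicate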
Target sequence (Q9QR71 whole entry, looked up): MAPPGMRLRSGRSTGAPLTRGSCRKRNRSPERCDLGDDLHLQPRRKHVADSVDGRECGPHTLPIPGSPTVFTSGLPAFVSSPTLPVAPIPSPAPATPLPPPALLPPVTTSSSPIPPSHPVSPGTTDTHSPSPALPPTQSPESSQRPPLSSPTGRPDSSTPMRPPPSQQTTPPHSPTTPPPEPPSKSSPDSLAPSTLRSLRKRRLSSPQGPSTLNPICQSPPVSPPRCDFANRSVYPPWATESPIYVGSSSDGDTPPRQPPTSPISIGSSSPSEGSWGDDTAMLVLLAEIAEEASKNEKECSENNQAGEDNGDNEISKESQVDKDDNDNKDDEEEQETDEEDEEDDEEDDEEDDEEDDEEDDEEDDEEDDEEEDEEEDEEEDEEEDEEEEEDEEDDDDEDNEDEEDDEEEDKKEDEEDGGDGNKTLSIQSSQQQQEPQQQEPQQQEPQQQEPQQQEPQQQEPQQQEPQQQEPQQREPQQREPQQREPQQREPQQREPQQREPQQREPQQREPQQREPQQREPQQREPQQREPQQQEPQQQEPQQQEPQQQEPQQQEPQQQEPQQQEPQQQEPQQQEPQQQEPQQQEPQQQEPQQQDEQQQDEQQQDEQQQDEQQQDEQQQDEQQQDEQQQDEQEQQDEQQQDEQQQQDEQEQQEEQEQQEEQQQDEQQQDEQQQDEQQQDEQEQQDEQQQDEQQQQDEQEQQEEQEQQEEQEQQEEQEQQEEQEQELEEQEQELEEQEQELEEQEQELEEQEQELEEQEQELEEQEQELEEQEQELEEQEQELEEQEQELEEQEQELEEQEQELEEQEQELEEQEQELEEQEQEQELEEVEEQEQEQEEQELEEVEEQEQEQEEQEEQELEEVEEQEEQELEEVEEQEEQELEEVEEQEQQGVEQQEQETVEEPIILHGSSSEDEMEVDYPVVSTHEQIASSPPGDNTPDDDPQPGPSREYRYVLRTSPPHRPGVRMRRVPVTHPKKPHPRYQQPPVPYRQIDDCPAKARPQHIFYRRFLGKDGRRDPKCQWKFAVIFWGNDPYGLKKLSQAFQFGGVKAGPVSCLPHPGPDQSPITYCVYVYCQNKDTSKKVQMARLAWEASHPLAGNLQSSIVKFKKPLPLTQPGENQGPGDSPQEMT
Calb FLC: C. albicans growth inhibition with fluconazole, primary screen, CaCi-2 strain, Alamar Blue fluorescence; C. albicans CaCi-2 (fluconazole-resistant clinical isolate) + fluconazole, 48 h; growth inhibition, % (no concentration beside the values); 300,000 tested, 0.57% active;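 active = most replicates above 75%; inconclusive = exactly half above 75%; inactive = most below 75%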;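 also: all wells also contain fluconazole at 8 µg/ml as a sub-toxic cotreatment; 0% = median of DMSO wells and 100% = median of geldanamycin control wells; wells of about 8 µL received 7.5 nL stock; the first replicate is given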
MLL AF4-AF9 inh: inhibitors of AF4 peptide binding to AF9, primary screen, biochemical, AlphaScreen, biotin-AF4 peptide, FLAG-AF9, single point. Protein AF-9 (Homo sapiens), P42568. 350,000 tested, 0.47% active. inhibition, % at 10 µM;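 active = every replicate reaching a set inhibition limit, whatever the replicate mean, cut at about 25% in these data; inconclusive = mean inhibition reaches that limit but some replicates miss it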;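 also: 0% = plate neutral control median and 100% = total signal loss; the record names both 10 and 1 µM as test concentration; the first replicate is given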
A1 inh: caspase 3/7 activation in MEF A1-2A-BIM cells, primary screen, A1 inhibitor project, cell-based, luminescence, HTS | 330,000 tested, 0.066% active | AID 2462, 2010 | caspase activation, % (concentration not given with the values) | Caspase-Glo 3/7 luminescence, 3 h; percent of clofoctol response, vehicle zero;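 active = over half of replicate activation scores above 10%, or exactly half above 10 with the replicate mean above 10; inconclusive = replicate mean below 10 yet half the replicates above 10; inactive = over half of replicates below 10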;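 also: wells of about 30 µL received 50 nL stock; many hits fall short of the cut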
Active calls of the source: *; ? = inconclusive; / = no result given. This is a random part of the collection; 4.3% or so of the library scored in one or more.

SMILES	T cruzi inh	RanGTP-Impb inh	Vif A3G	Beta apoptosis	LANA-H2A inh	Calb FLC	MLL AF4-AF9 inh	A1 inh
Cc1cc(=O)oc2cc(NC(=O)c3ccccc3C(=O)O)ccc12	-3	2.4	-9%	0	1.3	28	-0.6	-1.8
Cc1cc(NC(=O)CSc2nnc(Nc3ccccc3F)s2)no1	-10	4.5	11%	-3	-3.7	13	-2.6	-3.6
O=C(NC1CCCCC1)C1CC(=O)N(CCc2ccccc2)C1 (stereo not drawn)	-16	1.6	-8%	1	-0.1	-22	4.0	0.2
COc1ccc(OC)c2[nH]c(C(=O)O)cc12	-7	-0.5	25%	/	1.9	-1	3.7	0.3
CC(C)CCn1c(SCC(=O)Nc2ccccc2C(F)(F)F)nc2nccnc2c1=O	8	3.0	-1%	-6	0.5	4	-8.4	0.5
CCOc1ccc(-c2nc(N)nc(C)c2-c2ccc(OC)c(OC)c2)c(O)c1	/	/	0%	-6	-2.6	/	/	0.2
CCCCOCCCNC(=O)N[C@H](C(=O)O)C(C)CC (stereo partly drawn)	0	?	-2%	-1	4.1	-5	-7.0	0.1
Cc1cc(OCC(=O)Nc2cc(C(C)(C)C)on2)ccc1[N+](=O)[O-]	0	-2.9	/	0	3.8	-11	-6.9	-1.3
CC(OC(=O)C1COc2ccccc2O1)C(=O)N(C)c1ccccc1 (stereo not drawn)	4	-3.5	0%	-6	-2.7	-6	-0.1	1.0
COc1ccc(C(=O)CSc2nnc(Cc3ccccc3)o2)cc1	3	?	-1%	-4	5.4	4	/	-2.4

Reprinted from the part before: two entries, followed by the next part.
SMILES	T cruzi inh	RanGTP-Impb inh	Vif A3G	Beta apoptosis	LANA-H2A inh	Calb FLC	MLL AF4-AF9 inh	A1 inh
CC(OC(=O)C1COc2ccccc2O1)C(=O)N(C)c1ccccc1 (stereo not drawn)	4	-3.5	0%	-6	-2.7	-6	-0.1	1.0
COc1ccc(C(=O)CSc2nnc(Cc3ccccc3)o2)cc1	3	?	-1%	-4	5.4	4	/	-2.4
Cc1nccn1CC(=O)O	-11	1.0	/	0	0.8	0	/	0.6
CC(C)=C1C(=O)NN(c2cccc(Cl)c2)C1=O	-1	1.2	22%	-2	-0.1	-2	-15	0.3
CCC(C)NC(=O)C1CCN(C(=O)N(C)C)CC1 (stereo not drawn)	-4	6.3	4%	0	6.1	-3	-15	0.9
NS(=O)(=O)c1ccc(NC(=O)CSc2nc3ccccc3n2-c2ccccc2)cc1	4	2.0	/	3	-1.4	22	/	1.1
O=C1CC(N2CCCCCC2)C(=O)N1c1ccc2c(c1)OCO2 (stereo not drawn)	1	-2.5	19%	-1	-3.5	36	14	0.2
Cn1c(Cc2nc3ccccc3n2C)nc2ccccc21	-36	0.0	/	3	-1.3	5	-5.7	1.3
COc1ccc(C(=O)Nc2ccc(Cl)cc2C(=O)N2CCOCC2)cc1	-3	2.2	-4%	-3	-3.1	3	-2.9	0.2
CC(OC(=O)CNC(=O)COc1ccccc1)C(=O)N(C)Cc1ccccc1 (stereo not drawn)	-6	3.7	0%	-6	2.3	5	-11	-0.7
CCOc1cc(C(=O)N2CCCC2)cc(OCC)c1OCC	-4	3.8	15%	-2	-3.7	-2	/	0.1
CCCCCCCCCC[n+]1cccc(C(=O)N(CC)CC)c1	8	-0.6	/	7	-1.5	11	-1.4	0.7
CC(C)c1nc(Cl)c(C#N)c2c1CSC(C)(C)C2	-2	-3.0	27%	-9	0.0	-4	-11	-0.1
O=C(Nc1ccc(N2CCCC2)c(S(=O)(=O)Nc2cccc(C(F)(F)F)c2)c1)c1cccs1	12	1.8	2%	1	1.0	1	/	-0.4
CC(NCc1ccc2c(c1)OCO2)C(=O)N1CCc2ccccc21 (stereo not drawn)	2	0.8	/	-1	0.1	6	/	1.2
CCc1cc2c3c([nH]c2cc1S(=O)(=O)N1CCC2(CC1)OCCO2)CCCC3=O	13	2.9	/	1	-1.2	0	-0.8	0.5
Cc1ccc(N2C(=O)[C@@H]3C(C(=O)CN4C(=O)c5ccccc5C4=O)=NN[C@@H]3C2=O)c(C)c1	-17	-1.7	-7%	1	24*	-11	/	-0.1
O=C(CSCc1ccccc1Br)NC1CC1	8	0.1	?	-6	-1.6	4	/	-1.6
CC(C)[C@@H](C(=O)NCC1CCCO1)N1C(=O)N2CCc3c([nH]c4ccccc34)[C@@]2(C)C1=O (stereo partly drawn)	10	-4.1	/	-7	-3.3	-1	1.5	1.2
CCN(CC(=O)N1CCN(Cc2ccccc2)CC1)S(=O)(=O)c1ccc(C)cc1	2	-2.5	/	-1	-5.1	1	0.3	0.3
Brc1ccccc1-n1nnc(-c2cccnc2)n1	-26	2.0	/	-8	1.3	6	2.4	0.5
Cc1ccc(C)c(NC(=O)c2ccc[n+](Cc3ccc([N+](=O)[O-])cc3)c2)c1	-3	2.7	1%	0	2.8	-2	/	0.2
O=C(NCCCO)C(=O)Nc1ccc2c(c1)N(S(=O)(=O)c1cccs1)CCC2	-10	-2.0	-9%	-6	4.7	-2	-0.6	0.4
N/C(Cc1ccc(Cl)cc1Cl)=N\OC(=O)Cc1cccs1	-11	0.2	?	-4	/	9	/	-1.4
O=C1C(=O)N(CCN2CCOCC2)C(c2ccc(Cl)cc2)/C1=C(/O)c1ccc(S(=O)(=O)N2CCOCC2)cc1 (stereo not drawn)	0	-0.8	/	2	-7.1	-4	/	0.4
CCc1noc(C)c1C(=O)Nc1ccccc1C(C)(C)C	0	-4.8	-4%	-6	-1.9	-11	0.2	0.5
CSc1cccc(CN2CCCC(CNC(=O)c3ccco3)C2)c1 (stereo not drawn)	28	3.9	-1%	2	3.5	1	1.5	2.0
CCC1C(=O)C(C)(C)C(=O)OC1c1ccc([N+](=O)[O-])cc1 (stereo not drawn)	-20	0.2	/	7	9.0	-10	-4.6	0.2
Cc1nnsc1C(=O)NNC(=O)c1ccc(C(F)(F)F)cc1	-13	0.1	/	-1	-1.9	1	-2.1	-0.8
O=C1CCN(Cc2ccccc2)CCN1[C@H](CO)c1ccccc1	0	2.1	/	-8	-1.3	-4	/	0.1
CCc1nc2oc3ccccc3c(=O)c2c(=O)n1Cc1ccccc1	7	-4.8	1%	4	-3.7	22	/	2.0
CC(=O)Nc1cccc(/C(C)=N/N2C(C)CCCC2C)c1 (stereo not drawn)	-7	-0.6	-4%	/	-3.0	-7	-1.7	-0.8
CCOC(=O)CNC(=O)N1CCCC(C(=O)c2cc(C)c(OC)c(C)c2)C1 (stereo not drawn)	-24	-1.3	/	-9	-1.2	27	0.3	0.6
COc1ccc(CN2CCOCCOCCOCC2)cc1	-9	-0.7	5%	-2	1.8	-2	/	0.4
CC(C)N(C(=O)Cn1c(SCC(=O)NC2CC2)nc2ccccc21)C(C)C	8	1.0	/	-2	-1.8	5	0.1	-0.6
COC(=O)NNC(=S)NCc1ccc(C)cc1	-3	5.7	/	-2	0.9	-1	/	0.0
CCOCC(=O)Nc1nnc(SCCOC)s1	-12	4.7	4%	-2	-3.5	11	/	0.2
CC1CCCCC1NC(=O)CC1Oc2ccccc2NC1=O (stereo not drawn)	-13	2.7	9%	/	0.6	8	-4.6	2.0
CCc1ccc2oc(-c3cc(N)ccc3Cl)nc2c1	33	6.2	15%	-6	-0.6	-4	/	-15
Cc1ccc(CNC(=O)C2CCC(=O)N(CCc3cccc(F)c3)C2)s1 (stereo not drawn)	-2	-3.8	7%	/	/	-1	0.1	/
COc1ccc(C(=O)O/N=C(/c2ccccc2)c2ccncc2)cc1	-12	0.1	/	-7	5.4	?	0.5	0.4
N#CCc1c(C#N)c(N)nc(N2CCOCC2)c1C#N	13	4.2	/	-1	1.8	-4	-1.6	1.2
O=C(O)c1ccc(NCc2ccc(Br)cc2)cc1	-6	?	6%	0	-1.4	19	-1.2	-1.3
Clc1ccc(SCc2cc(-c3ccccc3)on2)cc1	5	0.4	?	4	4.8	-1	/	-0.1
CC(=O)c1c(C(C)=O)c(C)n(C(c2ccccc2)c2ccccc2)c1C	1	6.5	0%	-6	-6.0	-3	5.4	-0.1
Cc1ccccc1NC(=O)OCc1cccnc1Sc1ccc(Cl)cc1	24	-3.6	4%	-6	-2.4	-1	/	1.1
Cc1cccc(C(=O)NCCCN2CCCC2=O)c1	-10	1.3	-4%	0	-1.4	15	/	0.2
COc1ccc(C2=NS(=O)(=O)N(C)C(C(=O)NC(C)c3ccccc3)=C2)cc1OC (stereo not drawn)	2	0.2	/	3	1.2	17	0.0	0.5
CSc1nnc(-c2cc[n+](C)cc2)n1CCO	-16	1.3	/	5	1.7	0	-0.3	1.1
CC(NC(=O)C1CCCN1S(=O)(=O)c1ccc2c(c1)n(C)c(=O)c(=O)n2C)c1ccccc1 (stereo not drawn)	0	3.8	-2%	-2	1.7	5	7.9	1.1
CCOc1ccc(NC2=NCC(=O)N2Cc2cccs2)cc1	-2	0.7	-4%	-1	7.9	-13	/	-0.9
CCC(C)[C@H](NC(=O)OC(C)(C)C)c1nnc(SCc2c(C)[nH]c(=O)[nH]c2=O)o1 (stereo partly drawn)	-5	3.6	4%	-6	0.3	-3	/	0.0

Next part
SMILES	T cruzi inh	RanGTP-Impb inh	Vif A3G	Beta apoptosis	LANA-H2A inh	Calb FLC	MLL AF4-AF9 inh	A1 inh
O=C(CCCCCn1c(=S)[nH]c2cc3c(cc2c1=O)OCO3)N1CCN(c2ccccc2)CC1	3	-0.6	-16%	27	2.6	0	-1.3	0.6
O=C(O)CSc1c2ccccc2cc2ccccc12	-4	?	8%	0	-2.2	8	-3.4	-5.2
O=c1cc(C(F)(F)F)[nH]c2ccc(OC(F)(F)F)cc12	-3	0.8	6%	/	4.5	11	-1.5	-0.2
CC(C)CCOc1ccc(C(=O)N2CCCC2C(=O)O)cc1 (stereo not drawn)	7	-7.6	30%	-12	-3.4	-2	-2.1	-0.3
COC(=O)C(C)Sc1nc2c(c(=O)[nH]c(=O)n2C)n1CCC(C)C (stereo not drawn)	-4	-2.4	19%	3	-1.0	-2	/	0.1
CC(C)N1CCN(Cc2ccccc2-c2ccco2)CC1CCO (stereo not drawn)	12	5.1	0%	-8	-5.8	-6	1.7	1.4
COCCC(=O)N1CCC(Oc2ccc(C(=O)N3CCCC(OC)C3)cc2)CC1 (stereo not drawn)	-6	2.0	7%	/	/	-4	-5.1	/
Cc1noc(C)c1CSCC(=O)OCc1nc2ccccc2c(=O)n1CC#N	-3	?	22%	-3	-4.1	1	/	-0.4
CC(C)n1c(C(O)c2ccc3c(c2)OCO3)nc2ccccc21 (stereo not drawn)	-9	-0.4	4%	-5	0.8	-2	/	1.0
CC(C)(C)OC(=O)N1CCC2(CC1)Oc1ccc(F)cc1C(=O)C21CC(c2ccc(Cl)cc2)=NO1 (stereo not drawn)	2	2.3	/	-6	-1.8	46	/	-0.1
